AID923 = qHTS Assay for Allosteric/Competitive Inhibitors of Caspase-1: Spectroscopic Profiling in AFC Spectral Region; 75,000 tested, 1.1% active; compound fluorescence, AFC spectral region (405/520 nm); almost no hit is shown here; Potency, µM (doses to about 57.5 µM), for the others: at the top dose fluorescence increase, actives largely listed as activators; active = well fitted activation curve with a large enough effect; inconclusive = small, poorly fitted or top-dose-only effect;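 also: potency is read from the fitted curve at half-maximal effect; 0% is about no effect; scaled to a free AFC standard on each plate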
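Compound autofluorescence profiled at 405 nm ex/520 nm em during kinetic caspase 1 run (50 nM enzyme, 5 uM Ac-WEHD-AFC, HEPES pH 7.5, 10 mM DTT). Titration up to 57 uM; baseline from regression intercept, normalized to AFC standard curve.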
A488 fluor = compound fluoresces in the A488 spectral region; compound autofluorescence, A488 spectral region, dye equivalency; stronger effect = higher value; max dye equivalency, M; 59,000 tested, 0.1% active; active = above 10 nM dye equivalent; inconclusive = 1 to 10 nM; inactive = 1 nM or less; about half of its hits are not listed in these tables;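 also: highest value over a series up to 38 µM; compound alone in buffer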
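Autofluorescence read at ex 480/em 540 nm after 15 min RT in 100 mM Tris pH 8.0; compound signal normalized to A488 standard series on each plate, reported as dye-equivalent concentration at each test concentration.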
A647 autofl = compound fluoresces in the A647 spectral region; Compound fluorescence, A647 channel (570/671 nm), Tris buffer; max dye-equivalent concentration, M; 59,000 tested, under 10 active; AID 592; active means above 1 µM dye equivalent; inconclusive means 0.1 to 1 µM; inactive means 0.1 µM or less;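 also: values scaled relative to a standard on each plate; highest value over a series up to 38 µM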
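Buffer was dispensed, compounds and Alexa 647 standards were pin-transferred, and plates sat 15 min at room temperature. Intensity at 570/671 nm was then converted to dye-equivalent concentration using the plate's A647 standard curve.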
Resorufin autofl = compound fluoresces in the resorufin spectral region; Compound fluorescence, resorufin region 547/598 nm, buffer; stronger effect = higher value; max dye-equivalent concentration, M; 59,000 tested, 0.04% active; AID 588; active = above 10 nM dye equivalent; inconclusive = 1 to 10 nM; inactive = 1 nM or less; a few of its hits are not listed in these tables; also: highest value over a series up to 38 µM
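Read-out: intrinsic compound fluorescence at ex 547/em 598 nm after 15 min at RT in pH 8.0 Tris (100 mM). Values expressed as resorufin-equivalent concentration from per-plate standard series.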
TSHR agonist = agonists of human thyroid stimulating hormone receptor; HEK293-CNG-TSHR cells (CNG channel as cAMP sensor), membrane potential dye, cAMP; 73,000 tested, 0.48% active; Potency, µM (highest dose often 57.1 µM), inactives show top-dose activation, hits mostly activators; P16473; active = well fitted activation curve of enough size with the parental cells flat; inconclusive = any curve in the parental cells; inactive = parental cells flat and receptor cells flat or falling; also: potency is read from the fitted curve at half-maximal effect; % of control where 0% means no effect; weak receptor curves with flat parental cells got no call and are not listed
Target sequence (P16473 whole entry, looked up): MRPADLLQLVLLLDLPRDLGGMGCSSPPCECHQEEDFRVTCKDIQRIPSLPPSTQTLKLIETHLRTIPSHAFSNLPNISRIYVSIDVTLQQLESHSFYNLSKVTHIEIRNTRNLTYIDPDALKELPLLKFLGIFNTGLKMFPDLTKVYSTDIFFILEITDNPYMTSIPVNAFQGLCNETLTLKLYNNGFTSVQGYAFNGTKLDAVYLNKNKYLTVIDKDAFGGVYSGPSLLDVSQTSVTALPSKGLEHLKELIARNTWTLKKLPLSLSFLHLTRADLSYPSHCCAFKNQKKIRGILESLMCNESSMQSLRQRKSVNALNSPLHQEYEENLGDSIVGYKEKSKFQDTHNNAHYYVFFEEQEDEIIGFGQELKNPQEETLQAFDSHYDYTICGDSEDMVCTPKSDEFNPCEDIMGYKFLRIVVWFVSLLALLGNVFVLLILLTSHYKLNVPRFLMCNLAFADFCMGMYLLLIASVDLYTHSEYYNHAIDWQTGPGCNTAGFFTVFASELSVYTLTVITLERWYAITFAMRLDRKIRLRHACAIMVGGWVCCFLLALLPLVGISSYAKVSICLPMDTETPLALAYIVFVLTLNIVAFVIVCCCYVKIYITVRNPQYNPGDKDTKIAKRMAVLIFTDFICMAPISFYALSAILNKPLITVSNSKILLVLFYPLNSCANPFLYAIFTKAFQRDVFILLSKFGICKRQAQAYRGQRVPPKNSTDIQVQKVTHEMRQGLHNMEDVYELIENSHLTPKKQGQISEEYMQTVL
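HEK 293 cells stably expressing TSHR and a cAMP-gated CNG channel; parental CNG-only cells as counterscreen. Cells preloaded 60 min with membrane potential dye plus 100 uM RO 20-1724, then compound 30 min; fluorescence read at 590 nm.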
* hit, by the source's call; i = inactive; ? = inconclusive; · = not tested or not shown; & = joins results of further samples; [ ] = another dose, or the depositor's remark. Only part of the results is shown; the hit share may differ from the screen's.

SMILES | AID923 | A488 fluor | A647 autofl | Resorufin autofl | TSHR agonist
COCCn1c(SCC(=O)N2CCCc3ccccc32)nc2ccccc2c1=O | -2.6% | i | 3.1e-09 | i | ?
CC1=C(C(=O)Nc2ccccn2)C(c2ccccc2)n2ncnc2N1 (centres undefined) | -1.4% | · | · | · | 3.0%
CSc1nc2c(c(=O)[nH]c(=O)n2C)n1C/C=C(\C)Cl | 1.6% | i | 1.5e-09 | i | ?
Cc1cc(=O)oc(C)c1C(=O)NCCNC(=O)c1c(C)cc(=O)oc1C | · | i | 2.09e-08 | i | ·
O=c1c2ccccc2nc(-c2ccoc2)n1CCc1ccccc1 | 0.2% | i | 7.2e-09 | i | 14.1%
O=S1(=O)C=C(Oc2ccc(F)cc2)c2ccccc21 | 1.3% | i | 2.3e-09 | i | 13.4%
COc1cc(C(=O)COC(=O)Cc2cnc3sccn23)cc(OC)c1OC | 3.0% | i | 2.39e-08 | i | -0.1%
Cc1noc(C)c1COC(=O)c1cc2c(C)nn(-c3ccc(F)cc3)c2s1 | -0.9% | i | 2.2e-08 | i | 8.5%
C[C@@H](C(=O)N[C@@H](CO)Cc1ccccc1)[C@H]1C[C@]1(C)[C@H](NC(=O)OCc1ccccc1)c1ccccc1 | 2.1% | · | · | · | ?
CCOCCCNC(=O)C(NC(=O)CNC(C)=O)c1ccc(Cl)cc1 (centres undefined) | 1.5% | i | 1.95e-08 | i | 1.4%
CN1CCN(c2ccnc(-c3cccnc3)n2)CC1 | 1.0% | i | 1e-09 | i | ?
N[C@H](CCC(=O)NCC(=O)O)C(=O)O | -2.7% | · | · | · | -2.2%
CCOC(=O)c1cnc(-n2nc(C)cc2C)nc1NC | -0.5% | i | 1.8e-09 | i | 7.7%
CCCC(=O)OCCn1c(Br)nc2c1c(=O)[nH]c(=O)n2C | -0.2% | i | 1.81e-08 | i | 0.5%
CS(=O)(=O)N(Cc1nc2sc3c(c2c(=O)[nH]1)CCCC3)C1CCCCC1 | 1.1% | i | 3.8e-09 | i | 9.4%
O=C(CSc1nc2ccccc2[nH]1)Nc1ccccc1N1CCOCC1 | -3.2% | i | 1e-09 | i | 17.0%
CC(C)NC(=O)COC(=O)c1ccc(O)cc1 | -2.0% | i | 6.7e-09 | i | 1.4%
O=C(NCCN1Cc2ccccc2C1=O)c1cccs1 | -1.0% | i | 3.14e-08 | i | 17.9%
O=C(c1ccco1)N1CCN(S(=O)(=O)c2ccc3c(c2)OCCO3)CC1 | 0.3% | i | 2e-09 | i | -1.2%
C=CCSC1=C(C#N)C(c2cc(Br)c(O)c(OC)c2)CC(=O)N1 (centres undefined) | 1.2% | i | 1e-09 | i | -0.8%
COc1cc2c(cc1OC)-c1cc(=Nc3c(C)cc(C)cc3C)n(C)c(=O)n1CC2 | 1.7%&-2.0% | i | 1e-09 | i | ?
CC(C)C(NS(=O)(=O)c1ccc2c(c1)OCCO2)C(=O)NCCc1ccccn1 (centres undefined) | -0.8% | i | 2.89e-08 | i | 2.8%[11.4 µM]
O=C(CCN1C(=O)c2cccnc2C1=O)NC1CCCCCC1 | 0.0% | i | 1e-09 | i | -0.8%
Cn1nnc2cc(NC(=O)NCc3ccc4c(c3)OCO4)ccc21 | -1.7% | i | 4.3e-08 | i | 2.1%
O=C(O)CC[C@@H](NC(=O)c1ccccc1C(=O)O)C(=O)O | -0.3% | i | 2.94e-08 | i | 4.0%

Part of the list above, reformatted.
> C[C@@H](C(=O)N[C@@H](CO)Cc1ccccc1)[C@H]1C[C@]1(C)[C@H](NC(=O)OCc1ccccc1)c1ccccc1
  AID923 = 2.1%
  A488 fluor = ·
  A647 autofl = ·
  Resorufin autofl = ·
  TSHR agonist = ?
> CCOCCCNC(=O)C(NC(=O)CNC(C)=O)c1ccc(Cl)cc1 (centres undefined)
  AID923 = 1.5%
  A488 fluor = i
  A647 autofl = 1.95e-08
  Resorufin autofl = i
  TSHR agonist = 1.4%

(next part)
SMILES | AID923 | A488 fluor | A647 autofl | Resorufin autofl | TSHR agonist
Cc1cc(NC(=O)CCc2ccc(C)o2)no1 | -0.5% | i | 2.32e-08 | i | 0.8%
O=C(NCc1ccccc1F)C1CCCN(C(=O)NC2CCCCC2)C1 (centres undefined) | 1.6% | i | 1.07e-08 | i | -0.2%
CN(C)c1ccc(O)c2c1CC1CC3[C@@H](N(C)C)C(=O)C(C(N)=O)=C(O)[C@]3(O)C(=O)C1=C2O (some centres undefined) | · | i | 4.6e-09 | i | ·
O=c1[nH]c(=O)n([C@H]2C[C@H](O)[C@@H](CO)O2)cc1Br | 1.7% | · | · | · | -6.1%
Cc1cc(C)cc(N2CCCn3c2nc2c3c(=O)n(CC(=O)OCc3ccccc3)c(=O)n2C)c1 | -0.3% | i | 1.8e-09 | i | -3.3%
Cc1ccc(C2Nc3ccccc3C(=O)N2Cc2ccco2)cc1 (centres undefined) | 6.6% | i | 4.11e-08 | i | 23.8%
C=CCc1cccc2cc(C(=O)N(C)C)c(=O)oc12 | 0.2% | · | · | · | -1.4%[11.4 µM]
O=C(c1ccccc1)c1cccc(NC(=O)c2ccco2)c1 | 0.0% | · | · | · | 13.9%
COc1ccccc1Nc1nc(N)nc(CSc2nncn2C)n1 | 1.2% | i | 7.2e-09 | i | -2.5%
O=C(CSc1nc2cc(Cl)ccc2s1)c1ccco1 | 2.2% | i | 2.6e-09 | i | ?
COc1ccc2ccc(Oc3ncccn3)cc2c1 | -1.6% | i | 3.9e-09 | i | -2.7%
O=C(NCc1ccc(F)cc1)c1c(O)c2cccc3c2n(c1=O)CCC3 | 1.1% | i | 8.5e-09 | i | 2.7%
CC1CCCCN1S(=O)(=O)c1cccc2cccnc12 (centres undefined) | 3.2% | · | · | · | 20.7%
CCOC(=O)c1sc(NC(=O)CCN2CCOCC2)c(C(=O)OCC)c1C | 1.0% | i | 1e-09 | i | 5.2%
COc1ccc2nc(C)cc(N3CCOCC3)c2c1 | 0.4% | i | 1e-09 | i | 9.3%
CS(=O)(=O)Nn1cnc2ccccc2c1=O | 1.3% | i | 9e-09 | i | -8.5%
COc1ccc(CCNC(=O)CSc2nc(N)c3c(C)c(C)oc3n2)cc1OC | -0.2% | i | 2.6e-09 | i | 11.1%
COc1ccc(/C=C/C2=NC(=C\N(C)C)/C(=O)O2)cc1 | · | i | 2.2e-09 | i | ·
O=C(NC1CCCCC1)C1CCN(c2nccs2)CC1 | -0.3% | i | 1e-09 | i | 5.0%
O=C(c1ccccc1)c1nnc(-c2ccncc2)o1 | 1.7% | i | 1e-09 | i | -3.4%
COc1ccc2[nH]c(=O)c(CN(C(=O)c3ccncc3)C(C)(C)C)cc2c1 | 7.1% | i | 1.38e-08 | i | -7.9%
CCOC(=O)c1c(NC(=O)c2nn(CC)cc2Br)c(C#N)cn1-c1ccccc1 | -2.3% | i | 1e-09 | i | 12.5%
O=c1ccc(S(=O)(=O)N2CCC(Cc3ccccc3)CC2)c[nH]1 | -0.7% | i | 2.08e-08 | i | ?
Fc1ccc(-c2nnc(NC3=NCCCCC3)o2)cc1 | -0.8% | i | 1.69e-08 | i | -7.4%
CN(Cc1cccs1)C(=O)COc1cccc(-n2cnnn2)c1 | -2.5% | i | 1e-09 | i | -19.2%

Additional structures:
SMILES | AID923 | A488 fluor | A647 autofl | Resorufin autofl | TSHR agonist
COC(=O)c1cccc(NC(=O)CSc2nnnn2C)c1 | -3.4% | i | 4.4e-09 | i | -2.0%
COc1ccc(Oc2ncc3nc(C)c(=O)n(-c4ccccc4)c3n2)cc1 | 1.9% | i | 3.47e-08 | i | 3.0%
CN1CCN(C(=O)c2cccc(COc3cc(Cl)ccc3Cl)c2)CC1 | -1.2% | i | 5.2e-09 | i | 24.1%
O=C(c1n[nH]c(=O)c2ccccc12)N1CCN(C2c3ccccc3-c3ccccc32)CC1 | -1.6% | i | 1.4e-09 | i | ·
COc1ccc(C2C(=O)N(C3CCCCC3)CC(=O)N2C2CCCC2)cc1 (centres undefined) | -0.2% | i | 1e-09 | i | ·
N#CCSc1nc2[nH]ncc2c(=O)n1-c1ccccc1Br | -1.3% | i | 3.85e-08 | i | -0.1%
CCOc1ccc2nc(NC(=O)c3ccoc3C)sc2c1 | 0.4% | · | · | · | -4.6%[11.4 µM]
O=C(OCC(=O)N1CCN(C(=O)c2ccco2)CC1)c1cn(-c2ccccc2)nc1-c1ccccc1 | -0.3% | i | 1e-09 | i | 14.7%
Cc1ccc(C(=O)Nc2ccc(S(=O)(=O)N3CCc4ccccc4C3)cc2)o1 | -0.5% | i | 1e-09 | i | 4.7%
CCN(CC)c1nc2n(c(=O)n1)CCN2CC | 0.5% | i | 1.89e-08 | i | -2.0%[11.4 µM]
O=C(O)C1CCCCC1C(=O)Nc1ccccc1F (centres undefined) | -2.8% | i | 2.7e-09 | i | 17.2%
O=C(O)CCC(=O)N(Cc1ccco1)c1nc(-c2ccccc2)cs1 | -0.8% | i | 9.7e-09 | i | ?
O=NN(Cc1ccc(Cl)cc1)[C@@H](C(=O)O)c1ccccc1 | 0.7%[11.5 µM] | i | 2.27e-08 | i | 5.4%[11.4 µM]
Cc1ccnc(NC(=O)C2CCN(S(=O)(=O)c3cccc4nsnc34)CC2)c1 | 0.6% | i | 3.8e-09 | i | -6.3%
CCN1C(=O)/C(=C2/C=CC=CN2C)OC1=S | -1.0% | · | · | · | 7.6%[11.4 µM]
Cc1sc2ncn3ncnc3c2c1C | 1.2% | i | 4.02e-08 | i | 8.0%
O=C(NCc1ccco1)C1CC(=O)N(c2ccc(F)cc2)C1 (centres undefined) | -0.8% | i | 1e-09 | i | -2.1%
Cc1ccc(CC(CC(=O)O)C(=O)NC2CCCCC2)cc1 (centres undefined) | 0.4% | · | · | · | -0.6%
O=S(=O)(N1CCCCC1)N1CCN(S(=O)(=O)N2CCCCC2)CC1 | -1.6% | i | 3.78e-08 | i | 20.7%
Cc1ncoc1C(=O)Nc1ccc(Oc2ccccc2)cc1 | -0.4% | i | 3.4e-09 | i | -8.1%
COc1ccc2nc3oc(C(=O)N4CCCCC4)cc3cc2c1 | 2.4% | i | 3e-09 | i | 0.2%
CCN(Cc1ccncc1)C(=O)[C@@H](CO)c1ccccc1 | -3.2% | i | 3.97e-08&3e-09 | i | -5.4%&5.1%
O=S(=O)(c1ccc(F)c(Cl)c1)N1CCCC1 | -1.5% | i | 5.6e-09 | i | 4.6%
O=C1CC[C@](CCc2nc3ccccc3[nH]2)(c2ccccc2)C(=O)N1 | -0.7%[11.5 µM] | i | 4.21e-08 | i | 4.1%[11.4 µM]
Cc1ccc2c(c1)c1c(n2CC(O)CNC(CO)(CO)CO)CCCC1 (centres undefined) | 3.9% | · | · | · | -9.2%

The list continues:
SMILES | AID923 | A488 fluor | A647 autofl | Resorufin autofl | TSHR agonist
Cc1nnc(SCc2cc(=O)[nH]c(Nc3nc(C)c4ccccc4n3)n2)s1 | -0.1% | i | 3.27e-08 | i | 59.0%
CC(=O)NC12CC3CC(C)(C1)CC(NC(C)=O)(C3)C2 | 1.3% | · | · | · | 0.6%[11.4 µM]
COc1ccccc1-n1cc(C(=O)NCC(=O)N2CCN(c3ccccn3)CC2)c2ccccc2c1=O | 1.2% | i | 8.1e-09 | i | 1.8%
CC(=O)c1cc(C#N)c(SCc2ccncc2)nc1C | · | i | 9.54e-08 | i | ·
O=C(CN1CCOCC1)Nc1ccc(Oc2ccc(NC(=O)CN3CCOCC3)cc2)cc1 | 2.9% | i | 1.2e-09 | i | 22.0%
CC(=O)N1CCC2(CCCN(C(=O)Nc3cccc(C#N)c3)C2)CC1 | -0.3% | i | 1.99e-08 | i | 1.5%
Cc1cc(CNC(=O)[C@H](C)[C@@H]2C[C@@]2(C)[C@@H](NC(=O)OCc2ccccc2)c2ccccc2)nn1C | -0.5% | · | · | · | 6.7%
N[C@](CC1c2ccccc2Oc2ccccc21)(C(=O)O)[C@@H]1C[C@@H]1C(=O)O | -0.5% | · | · | · | 7.9%
Nc1nc(CN2CCCCC2)cs1 | -0.5% | i | 6.4e-09 | i | 2.5%

Compound activity deposited in PubChem BioAssay by National Center for Advancing Translational Sciences (NCATS).
